Cruzain inh noDet – inhibitors of Trypanosoma cruzi cruzain without detergent. AID 1476. P25779. actives 2.3% (n = 200,000). Potency, µM, without a hit: max response, negative = inhibition, most hits filed as inhibitors. purified cruzain, Z-FR-AMC fluorescence, no detergent;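 also: plate controls were enzyme without inhibitor for no effect and buffer without enzyme for full effect; nearly all actives have a fitted effect of over 40% in size; top concentration of the series not given in the record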
Target sequence (P25779 123-467 limits assumed): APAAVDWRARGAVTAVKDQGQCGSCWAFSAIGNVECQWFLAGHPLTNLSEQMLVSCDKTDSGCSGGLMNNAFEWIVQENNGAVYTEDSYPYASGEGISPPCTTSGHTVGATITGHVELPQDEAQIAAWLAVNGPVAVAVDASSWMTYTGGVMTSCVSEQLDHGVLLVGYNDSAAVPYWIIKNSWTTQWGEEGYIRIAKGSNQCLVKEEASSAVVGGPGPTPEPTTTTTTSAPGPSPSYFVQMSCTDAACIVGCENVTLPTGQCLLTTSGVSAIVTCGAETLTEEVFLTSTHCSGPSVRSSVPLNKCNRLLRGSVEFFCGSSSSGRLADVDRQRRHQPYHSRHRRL
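Purified cruzain at 1.5 nM, pre-incubated 15 min with compound at room temperature in 100 mM sodium acetate pH 5.5, 5 mM DTT, 0.00005% Triton X-100. Reaction started with 2 uM Z-FR-AMC; AMC fluorescence increase over 60 s gives rate.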
Marburg entry inh – Marburg virus entry inhibition; Marburg virus pseudotyped entry inhibition, cell reporter; control for the full effect not named in the record; about a third of the inactives were read at about 46 µM; Potency, µM (titrated, usually from 37.8 µM), inactives show at the highest dose activity change, negative = inhibition, actives largely listed as inhibitors; actives 1.8% (n = 300,000); AID 540276; active = well fitted inhibition curve with a large enough effect; inconclusive = small, poorly fitted or top-dose-only effect, or effect the other way; inactive = flat fitted curve, though single readings scatter; tested in HEK293 cells; about a fifth of its hits are not listed in these tables; also: % is scaled to controls: 0 for no effect and ±100 for the full control effect; luciferase read-out
NS1 function inh – inhibitors of influenza NS1 protein function; S. cerevisiae slowed by influenza A NS1, growth recovery by OD600; Potency, µM (top dose mostly 46.1 µM), without a hit: top-dose activity, positive = more growth; actives 0.4% (n = 270,000); active means well fitted rising curve with a large enough effect; inconclusive means small, poorly fitted or top-dose-only effect; inactive means no such curve, though single readings can be large or run the other way; also: nearly all actives have a fitted effect of over 50% in size
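Read-out: OD600 growth recovery of NS1-expressing budding yeast. Cells grown overnight at 30C in -URA glucose medium, washed, resuspended and diluted 1:100 in 2% galactose assay medium, pH 6.0. Same strain lacking NS1 served as positive control.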
LASV entry inh – inhibitors of Lassa virus binding or cell entry. Potency, µM (top dose mostly 37.9 µM), without a hit: at the highest dose activity change, negative = inhibition, usual class: inhibitors. actives 1.2% (n = 300,000). Lassa virus pseudotype entry inhibition, cell reporter; control for the full effect not named in the record; active means well fitted inhibition curve with a large enough effect; inconclusive means small, poorly fitted or top-dose-only effect, or effect the other way; inactive means flat fitted curve, though single readings scatter; tested in HEK293 cells; also: % is scaled to controls: 0 for no effect and ±100 for the full control effect; nearly all actives have a fitted effect of over 50% in size; luciferase read-out
StopGo reporter – lowers the luciferase signal of an FMDV 2A StopGo reporter; Potency, µM (highest dose often 57.9 µM), inactives show top-dose signal change, negative = less light; actives 1.2% (n = 410,000); human cells with a luciferase reporter of 2A StopGo recoding; control for the full effect not named in the record; active = well fitted falling curve with a large enough effect; inconclusive = small, poorly fitted or top-dose-only effect; inactive = no such curve, though single readings can be large or run the other way; tested in HEK293T cells; also: % is scaled to controls: 0 for no effect and ±100 for the full control effect; nearly all actives have a fitted effect of over 45% in size; luciferase light after 4 h
RE007 growth inh – less growth of the S. pombe RE007 Vpr strain | Potency, µM (doses to about 92.2 µM), without a hit: top-dose activity change, negative = less growth | actives 0.21% (n = 360,000) | AID 651644 | S. pombe RE007 Vpr strain, BacTiter-Glo ATP luminescence, 24 h; control for the full effect not named in the record; active = well fitted falling curve with a large enough effect; inconclusive = small, poorly fitted or top-dose-only effect; inactive = no such curve, though single readings can be large or run the other way;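 also: % is scaled to controls: 0 for no effect and ±100 for the full control effect; nearly all actives have a fitted effect of over 50% in size; the assay follows cell death caused by Vpr and the record does not say whether a fall means rescue or toxicity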
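Fission yeast strain RE007, carrying one chromosomally integrated HIV-1 vpr copy, was seeded at OD 0.01 in PMG+AL medium with 23 nL pinned compound. After 24 h at 30 °C and 99% humidity, viability was read by BacTiter-Glo luminescence.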
Cruzain Triton – blocks cruzain activity in presence of Triton detergent. P25779. purified cruzain, Z-FR-AMC fluorescence, 0.01% Triton. Potency, µM, without a hit: max response, negative = inhibition, hits mostly inhibitors. actives 0.43% (n = 200,000);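 also: plate controls were neutral wells for no effect and buffer without enzyme for full effect; nearly all actives have a fitted effect of over 40% in size; top concentration of the series not given in the record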
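Detergent-containing arm of a paired screen for aggregation-based inhibition: 0.01% Triton X-100 present. Cruzain at 1.5 nM cleaved 2 uM Z-FR-AMC at pH 5.5 with 5 mM DTT; AMC fluorescence gain over 60 s measured activity.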
SARS PLP yeast – inhibitors of SARS-CoV papain-like protease in yeast. S. cerevisiae expressing SARS-CoV PLpro, growth rescue; control for the full effect not named in the record. Potency, µM (highest dose often 32.9 µM), without a hit: at the top dose activity, positive = growth rescue. actives 0.19% (n = 330,000). AID 485353; active means well fitted rising curve with a large enough effect; inconclusive means small, poorly fitted or top-dose-only effect; inactive means no such curve, though single readings can be large or run the other way; also: 0% is about no effect; nearly all actives have a fitted effect of over 55% in size; growth read by luminescence after 48 h
Numbers without * were called inactive; ? = inconclusive; / = no result given; [ ] = another dose, or the depositor's remark. Unless noted, calls follow the shape of the dose curve; as a rule, active = well fitted curve in the direction sought with a large enough effect; inconclusive = small, poorly fitted or top-dose-only effect, or another doubt; inactive = no such curve, though single readings can be large; an effect the other way counts as inactive or inconclusive. Potency is read from the fitted curve at half-maximal effect.

Second line of a record – Cruzain inh noDet, Marburg entry inh, NS1 function inh, LASV entry inh, StopGo reporter, RE007 growth inh, Cruzain Triton, SARS PLP yeast
> Cc1ccccc1SCc1noc(C(=O)NCC2CCCO2)c1C(=O)O (stereo unspecified)
→ -10%, /, 11%, /, -6%, 1%, 1.1%, 1%
> O=C(Nc1ccc(Cl)cc1)Nc1cccc2nsnc12
→ /, /, -59%, /, 5%, -1%, /, -7%
> CCC(C(=O)NCc1cccnc1)n1nc(C)n2c(cc3occc32)c1=O (stereo unspecified)
→ /, 2%[46.1 µM], 3%, -5%[46.1 µM], 2%, 1%, /, -5%
> O=C(NCc1ccco1)C1CC(=O)N(c2ccc(O)cc2)C1 (stereo unspecified)
→ -6%, 16%, 11%, ?, -13%, ?, -6.5%, -3%
> O=C(O)CCNc1nc(C(F)(F)F)nc2ccccc12
→ /, -1%[46.1 µM], 2%, 4%, -11%, 6%, /, 0%
> Cc1cc([N+](=O)[O-])nn1Cc1ccc(C(=O)N/N=C/c2ccc(O)cc2O)cc1
→ -6%, 7.3µM*, 28%, 3.5µM*, -17%, 11%, -8.4%, 3.2µM*
> COc1cccc(CNc2ccc3[nH]c(=O)[nH]c3c2)c1OCc1ccccc1
→ /, 1%, 9%, ?, ?, -4%, /, -1%
> O=C(NCc1ccccc1)N1CCN(c2ccccc2)CC1
→ /, 14%[46.1 µM], 13%, 5%[46.1 µM], 12%, 3%, /, 5%
> COCCn1c(SCC#N)nnc1-c1ccc2c(c1)OCO2
→ -4%, 7%, 0%, 5%, -2%, -4%, 3.4%, 10%
> CCC(C)c1ccc(O)c(NC(=O)c2ncn[nH]2)c1 (stereo unspecified)
→ 4%, 10%, -53%, -5%, /, -4%, 4.9%, -7%

Part of the list above in order of molecular weight, falling.
Second line of a record – Cruzain inh noDet, Marburg entry inh, NS1 function inh, LASV entry inh, StopGo reporter, RE007 growth inh, Cruzain Triton, SARS PLP yeast
> Cc1cc([N+](=O)[O-])nn1Cc1ccc(C(=O)N/N=C/c2ccc(O)cc2O)cc1
→ -6%, 7.3µM*, 28%, 3.5µM*, -17%, 11%, -8.4%, 3.2µM*
> COCCn1c(SCC#N)nnc1-c1ccc2c(c1)OCO2
→ -4%, 7%, 0%, 5%, -2%, -4%, 3.4%, 10%
> O=C(NCc1ccco1)C1CC(=O)N(c2ccc(O)cc2)C1 (stereo unspecified)
→ -6%, 16%, 11%, ?, -13%, ?, -6.5%, -3%

Additional structures.
Second line of a record – Cruzain inh noDet, Marburg entry inh, NS1 function inh, LASV entry inh, StopGo reporter, RE007 growth inh, Cruzain Triton, SARS PLP yeast
> O=C(CSc1nnc(-c2cccnc2)n1-c1ccccc1)Nc1ccccn1
→ 3%, -5%, -8%, 16%, -13%, -4%, 1.8%, -3%
> O=C(c1cc([N+](=O)[O-])ccc1N1CCCC1)N1CCCCC1
→ /, 17%[46.1 µM], 1%, 5%, 9%, -3%, /, 0%
> Nc1cc2cccnc2cc1Cl
→ /, 1%[46.1 µM], /, ?, 7%, -15%, /, /
> Cc1cccc(C)c1OCC(O)Cn1nnc2ccccc21 (stereo unspecified)
→ -2%, -4%, -18%, 12%, ?, 12%, -2.8%, -3%
> CCCN1CCN(S(=O)(=O)c2ccc3c(c2)CC(C)N3C(=O)C2CC2)CC1 (stereo unspecified)
→ /, -11%[46.1 µM], 3%, -10%[46.1 µM], -22%, -9%, /, 0%
> COC(=O)[C@H](C)NC(=O)/C=C/c1ccc(OC)cc1
→ 3%, 3%[46.1 µM], 14%, 17%[46.1 µM], ?, 2%, -1.6%, 1%
> COc1ccc(C(=S)NC2CCCCC2)cc1
→ -1%, 27%, 2%, ?, 84%[activator], ?, -2.5%, 1%
> CC1CCCCN1S(=O)(=O)c1ccc2c(c1)oc(=O)n2CC(=O)O (stereo unspecified)
→ -7%, ?, ?, 1%, -16%, 13%, 1.3%, 12%
> CC(C)CSc1nsc(N)n1
→ 8%, 15%, 2%, 6%, /, 3%, 4.9%, -14%
> Cn1c(=O)c2cc(S(=O)(=O)NCCC(=O)Nc3ccccc3F)ccc2n(C)c1=O
→ -1%, 8%, 0%, 2%, 6%, -9%, 8.3%, 9%
> C/C(CC(=O)Nc1ccccn1)=N\NC(=O)C(=O)Nc1cccc(Cl)c1C
→ ?, 13%, -10%, 15%, 7%, -14%, 0.4%, -1%
> COc1ccc(CN(C)CC(=O)NC2CCCc3ccccc32)cc1OC (stereo unspecified)
→ /, ?, /, -14%, -26%, 4%, /, -1%
> Cc1cc(-n2cc(Br)c(=O)[nH]c2=O)nc(-c2ccccc2)n1
→ /, /, 0%, /, -20%, 8%, /, -1%
> CN(C(=O)COC(=O)c1ccc([N+](=O)[O-])cc1N)c1ccccc1
→ /, 1%[46.1 µM], 5%, ?, 6%, -13%, /, 1%
> CC(C)CC(=O)c1c[nH]c(C(=O)NCc2ccccc2)c1
→ /, ?, -3%, 7.9µM*, 3%, -5%, /, 1%
> COc1ccc(CC(=O)N/N=C(/C)CC(=O)N(C)c2ccccc2)cc1
→ /, 21%[46.1 µM], 2%, -3%, 13%, -19%, /, -4%
> C=CCN1C(=O)/C(=C/c2ccc(O)c(OC)c2)S/C1=N/c1nccs1
→ ?, ?, -6%, ?, -28%, 1%, -12%, -4%
> Cc1cc(NC(=O)CCS(=O)(=O)c2cc(Br)cc3c2N(C(=O)C2CC2)CC3)ccc1Br
→ 2%, 27%[46.1 µM], /, -4%[46.1 µM], -12%, /, -4.1%, /

Grouped by structure: those above with fluorine.
Second line of a record – Cruzain inh noDet, Marburg entry inh, NS1 function inh, LASV entry inh, StopGo reporter, RE007 growth inh, Cruzain Triton, SARS PLP yeast
> O=C(O)CCNc1nc(C(F)(F)F)nc2ccccc12
→ /, -1%[46.1 µM], 2%, 4%, -11%, 6%, /, 0%
> Cn1c(=O)c2cc(S(=O)(=O)NCCC(=O)Nc3ccccc3F)ccc2n(C)c1=O
→ -1%, 8%, 0%, 2%, 6%, -9%, 8.3%, 9%

Single records, from the list above:
`Cc1cc(-n2cc(Br)c(=O)[nH]c2=O)nc(-c2ccccc2)n1` is listed as Cruzain inh noDet = /; Marburg entry inh = /; NS1 function inh = 0%; LASV entry inh = /; StopGo reporter = -20%; RE007 growth inh = 8%; Cruzain Triton = /; SARS PLP yeast = -1%
`CN(C(=O)COC(=O)c1ccc([N+](=O)[O-])cc1N)c1ccccc1` is listed as Cruzain inh noDet = /; Marburg entry inh = 1%[46.1 µM]; NS1 function inh = 5%; LASV entry inh = ?; StopGo reporter = 6%; RE007 growth inh = -13%; Cruzain Triton = /; SARS PLP yeast = 1%
